gsp agonist – gsp mutant agonism; gsp mutant cells, cAMP HTRF, 30 min; control for the full effect not named in the record; Potency, µM (doses to about 76.9 µM), inactives show at the top dose activation (cAMP increase), usual class: activators; actives 0.13% (n = 340,000); AID 624287; active = well fitted activation curve with a large enough effect; inconclusive = small, poorly fitted or top-dose-only effect, or another doubt; inactive = no such curve, though single readings can be large or run the other way; cell line not stated here;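 also: phosphodiesterase inhibitor Ro 20-1724 added with compounds to block cAMP breakdown; potency is read from the fitted curve at half-maximal effect; nearly all actives have a fitted effect of over 60% in size; about a fifth of the inactives were tested at one dose only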
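Cells in DMEM/10% FBS with G418 were pretreated with compounds in DMSO plus […] (300 uM stock) for 30 min at 37C. cAMP was measured by HTRF (cAMP-d2 plus anti-cAMP antibody-K) after 30 min at room temperature.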
ClpP mod – qHTS Assay for Activators of ClpP; AID 651965, 2013; actives 1.9% (n = 340,000); Potency, µM (series often up to 57.5 µM), for the others: at the highest dose activity change, negative = active; purified B. subtilis ClpP, FRET peptide cleavage, 20 min; active = well fitted falling curve with a large enough effect; inconclusive = small, poorly fitted or top-dose-only effect; inactive = no such curve, though single readings can be large or run the other way; also: potency is read from the fitted curve at half-maximal effect; the source files actives as falling curves though it sought activators and does not explain the sign; nearly all actives have a fitted effect of over 65% in size; many hits overshoot -100%
Target sequence (P80244 whole entry, looked up): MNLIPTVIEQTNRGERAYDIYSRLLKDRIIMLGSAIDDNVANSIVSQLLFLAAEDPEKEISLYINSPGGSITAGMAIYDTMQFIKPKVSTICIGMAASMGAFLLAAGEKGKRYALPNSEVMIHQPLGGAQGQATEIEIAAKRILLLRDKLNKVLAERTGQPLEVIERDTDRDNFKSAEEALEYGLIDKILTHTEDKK
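ClpP 10 microg/mL final, pH 8 Tris/KCl buffer with BSA, glycerol, Tween-20; compound pinned in; FRET-FV substrate; RT 20 min; Ex320/Em430; ΔFRET vs ADEP 5.8 microM, DMSO, no enzyme.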
D2 agonist – human D2 receptor agonism in beta-arrestin assay; DiscoveRx PathHunter D2 beta-arrestin, luminescence, 90 min; 100% = 57 uM dopamine signal; activation, % (no concentration beside the values); actives 0.084% (n = 360,000); in the data active = activation above about 40%; inconclusive = about 15% to 40%; inactive = below about 15%; also: compound concentration not given in the record; the text of the record calls up to 30% inactive
Target sequence (P14416 whole entry, looked up): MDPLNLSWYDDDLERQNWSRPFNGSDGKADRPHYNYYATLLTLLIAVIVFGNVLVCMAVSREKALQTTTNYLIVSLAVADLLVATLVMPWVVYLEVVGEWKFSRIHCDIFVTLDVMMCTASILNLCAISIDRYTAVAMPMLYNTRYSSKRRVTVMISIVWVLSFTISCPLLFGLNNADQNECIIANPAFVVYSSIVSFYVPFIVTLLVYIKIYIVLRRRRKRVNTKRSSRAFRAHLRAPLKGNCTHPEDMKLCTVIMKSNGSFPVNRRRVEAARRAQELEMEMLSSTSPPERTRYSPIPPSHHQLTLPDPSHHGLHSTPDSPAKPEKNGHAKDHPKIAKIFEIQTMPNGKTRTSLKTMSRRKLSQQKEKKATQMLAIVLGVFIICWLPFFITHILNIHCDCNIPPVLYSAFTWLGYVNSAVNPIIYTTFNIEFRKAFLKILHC
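Agonist mode: compounds alone added to overnight-plated D2 PathHunter cells for 90 min at 37 C, with 57 uM final dopamine (EC100) defining full response. Beta-arrestin recruitment detected by chemiluminescent reagent, read after 1 h at ambient temperature.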
Menin MLL FP FL – inhibitors of human menin-MLL interaction, wild-type MLL peptide; Fluorescence polarization, fluorescein-MLL peptide displacement from menin; FP activity change, % at 61.4 µM; 290,000 tested, under 10 active; AID 1766; inconclusive = falling polarisation curve, or a change in total fluorescence; inactive = total fluorescence flat and polarisation flat or rising; no compound was filed as active; the % refers to the polarisation; negative = inhibition;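 also: % of control where 0% means no effect; inhibitors lower the polarisation; unlabelled MLL peptide was the positive control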
PINK1 expr mod – PINK1 expression modulation; PINK1 immunofluorescence, high-content cytometry, 24 h; Potency, µM (titrated, usually from 76.6 µM), inactives show at the highest dose activation (PINK1 increase), actives largely listed as activators; actives 0.2% (n = 410,000); active = well fitted activation curve with a large enough effect; inconclusive = small, poorly fitted or top-dose-only effect; inactive = flat fitted curve, though single readings scatter; cell line not stated here;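 also: potency is read from the fitted curve at half-maximal effect; % of control where 0% means no effect; nearly all actives have a fitted effect of over 65% in size; a mitochondrial uncoupler was the plate control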
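Readout is PINK1 immunofluorescence, quantified alongside mitochondrial, cell and nuclear markers by laser-scanning microplate cytometry. Cells from a stable line were exposed to compound titrations (5 concentrations) for 24 hours, with CCCP controls.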
Sfp PPTase inh – Sfp phosphopantetheinyl transferase inhibition | Biochemical Sfp PPTase activity, qHTS | actives 3.5% (n = 310,000) | Q9F4F7 | Potency, µM, without a hit: max response, negative = inhibition, usual class: inhibitors; active = well fitted inhibition curve with a large enough effect; inconclusive = small, poorly fitted or top-dose-only effect, or another doubt; inactive = no such curve, though single readings can be large or run the other way;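 also: the enzyme is Sfp with the accession as filed and its product quenches rhodamine fluorescence; potency is read from the fitted curve at half-maximal effect; 0% = enzyme reaction without inhibitor and -100% = no enzyme wells; top concentration of the series not given in the record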
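Reaction rates are the 30-min fluorescence difference (ex 525, em 598 nm) in wells containing 15 nM Sfp, 5 uM rhodamine-CoA and 12.5 uM BHQ-2-YbbR at pH 7.6 with 10 mM MgCl2.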
gsp antagonist – antagonists of gsp mutant (McCune-Albright syndrome). gsp-mutant cells, cAMP HTRF, 30 min; control for the full effect not named in the record. Potency, µM (series often up to 76.9 µM), inactives show top-dose activity change, negative = inhibition, most hits filed as inhibitors. actives 0.4% (n = 340,000). AID 624288; active = falling curve of any shape with a large fitted effect; inconclusive = falling curve, mostly with a smaller effect; inactive = flat or rising curve; cell line not stated here;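 also: intracellular cAMP measured with PDE inhibitor Ro 20-1724 present during compound exposure; potency is read from the fitted curve at half-maximal effect; % is scaled to controls: 0 for no effect and ±100 for the full control effect; nearly all actives have a fitted effect of over 65% in size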
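Cells in G418 medium, seeded 16-24 h, 37C; buffer exchange to DPBS + 1 mM CaCl2, 0.5 mM MgCl2, 0.05% BSA; cpds in DMSO + […] (300 uM stock), 30 min 37C; HTRF cAMP detection.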
* hit, by the source's call; u = inconclusive; x = no result given; & = joins results of further samples; [ ] = remark or other dose. Outcome played no part in choosing rows; 5.1% or so of the library scored in one or more.

Every second line gives: gsp agonist	ClpP mod	D2 agonist	Menin MLL FP FL	PINK1 expr mod	Sfp PPTase inh	gsp antagonist
N/C(=N\OC(=O)COc1ccccc1)c1ccc(Cl)cc1
  -1%	1.2%	-5.1	-1.4	4.6%	16%	-4%
CCOC(=O)CSc1nnc2cc(C)c3ccccc3n12
  u	-6.4%	-3.7	-2.1	-0.1%	13%	-7%
CCn1cc(C(=O)NCCCN2CCC(C)CC2)c2cc(OC)c(OC)cc2c1=O
  20%	u	-1.1	1.9	1.7%	31%[activator]	-5%
CN(CCCC1CCCC1)C(=O)c1cc(COc2ccc(F)cc2F)on1
  -3%	0.6%	-2.7	x	5.5%	0%	7%
Cc1ccc(C(=O)N(CC(=O)Nc2ccc(Cl)c(Cl)c2)Cc2ccco2)cc1
  -23%	-4.1%	-3.8	-1.0	2.4%	-9%	-8%
O=C(CN(CC1CCCO1)C(=O)Cn1nnc(-c2ccc(F)cc2)n1)NC1CCCCC1 (stereo unspecified)
  14%	1.8%	2.5	0.4	3.5%[38.3 µM]	-5%	-5%
CCN1C(=O)[C@H]2[C@H]3CN=C(SCc4ccc(Cl)cc4)N3[C@@](CC)(C(=O)OC)[C@H]2C1=O
  x	-0.8%	-0.7	x	-0.9%	x	4%
CCNC(=O)C1CCCN(C(=O)c2cccc(C(F)(F)F)c2)CC1 (stereo unspecified)
  x	0.9%	-2.0	x	0.6%	x	x
CCOc1ccc(N2CC(C(=O)N/N=C/c3sccc3C)CC2=O)cc1 (stereo unspecified)
  15%	-1.0%	-3.0	-1.1	0.5%	15%	-9%
CS(=O)(=O)N(CC(=O)N/N=C/c1cccc2c1OCCO2)c1ccccc1Br
  u	u	-1.1	2.2	1.3%	13%	-8%
CCCn1nnc(NC(=O)c2ccc(-c3cc(Cl)ccc3Cl)o2)n1
  16%	-19%	-0.5	-3.2	14%	5%	-25%
COc1ccc(Br)cc1S(=O)(=O)N1CCN=C1C
  20%	-3.9%	-0.7	2.4	-1.8%	21%	2%
C/C=C/c1ccc2c(c1)O[C@H](CN(C)C(=O)NC1CCCC1)[C@H](C)CN([C@H](C)CO)S2(=O)=O
  -3%	-3.7%	-6.7	x	1.9%	x	x
O=C(Cn1cc2c(n1)CCCC2)NC1CCN(Cc2ccccc2)CC1
  7%	1.2%	-5.9	-2.7	1.7%	8%	4%
CCCNC(=O)c1ccc(S(N)(=O)=O)cc1
  0%	x	-4.4	8.2	0.6%	13%	3%
COc1ccc(CNC(=O)[C@H](C)NC(=O)C2CCN(C(=O)[C@H](CCSC)NC(=O)OC(C)(C)C)CC2)cc1
  x	-1.6%	-1.8	-3.9	-0.1%	18%	5%
O=S(=O)(c1ccc(NC(=S)NCCc2ccccc2)cc1)N1CCOCC1
  3%	-2.5%	3.0	6.2	1.0%	-6%	3%
CCCS(=O)(=O)N1CCC(C(=O)NCCc2ccc(C)cc2)CC1
  16%	1.2%	-2.4	-3.8	-0.5%	7%	5%
O=C(Cc1ccc2c(c1)OCO2)NN=Cc1ccc([N+](=O)[O-])o1
  1%[15.4 µM]	-2.5%	0.5	x	u	x	7%
CCN(CC)C(=O)C1CCCN(c2ccccc2[N+](=O)[O-])C1 (stereo unspecified)
  -12%	x	-4.6	-3.9	1.5%	-7%	7%
CC(C)(C)Nc1nc(-c2ccc3c(c2)CCN3C(=O)C2CC2)cs1
  8%	x	-4.6	x	4.8%	-22%	4%
Cc1nnc(SCC(=O)NNC(=O)c2ccc(F)cc2)n1Cc1ccccc1
  u	x	-5.9	x	-1.9%	x	2%
CSCCC(NC(=O)c1ccco1)C(=O)NNC(=O)c1n[nH]c(=O)c2ccccc12 (stereo unspecified)
  u	-2.5%	-8.5	x	0.6%	x	6%
Nc1nc(-c2cccnc2)nc(N2CCCCC2)n1
  -29%	1.5%	5.0	-1.1	-1.2%	13%	15%
COc1ccc(-c2c(C)c3cc(O)ccc3oc2=O)cc1
  12%	-3.7%	-2.7	-1.5	-0.4%	6%	u
COc1cc2c(cc1OC)CN(C(=O)CCCOc1ccc(Cl)cc1Cl)CC2
  -8%	-3.7%	1.3	5.4	-0.2%[38.3 µM]	u	-14%
O=C(CNc1cccc(Cl)c1)c1ccc(Cl)cc1
  -50%	0.1%	-6.6	0.0	-1.8%[38.3 µM]	-3%	1%
Cc1cc(C(=O)N/N=C/c2ccc(-c3ccc(C)c(Cl)c3)o2)n[nH]1
  11%[15.4 µM]	1.3%	-2.2	-1.2	2.1%	19%	2%
COc1ccc(NC(=O)C2(C)Cc3c(-c4ccccc4)ccnc3O2)cc1OC (stereo unspecified)
  x	0.2%	2.8	x	6.3%	x	x
COc1ccccc1-n1cnnc1SCC(=O)c1c[nH]c2ccccc12
  28%	-0.3%	-1.9	-0.5	0.1%	-9%	-9%
Cc1cccc(CSc2nnnn2-c2ccccc2)c1
  0%	-2.3%	-3.3	-9.4	0.4%	-2%	1%
O=C(NCc1ccco1)C1(S(=O)(=O)c2ccc(Cl)cc2)CC1
  3%	-1.8%	-0.7	3.9	9.2%[38.3 µM]	-3%	-6%
C#CCOc1ccc2c(C)cc(=O)oc2c1
  x	4.1%	1.6	-2.5&1.6	-0.4%	18%&-13%	-5%
N#C/C(=C\c1ccc(N2CCOCC2)o1)C(=O)NCCc1ccccc1
  -10%	x	6.3	u	0.2%	5%	-12%
COc1cc(NS(=O)(=O)c2ccc(NC(=S)NC(=O)c3sc4ccccc4c3Cl)cc2)ncn1
  7%[15.4 µM]	-2.4%	-2.6	-1.1	-3.2%	-30%	-7%
COc1ccccc1N1CN(CCc2ccccc2)CNC1=S
  -6%	x	-2.1	2.6	0.2%	u	3%
COc1cc(C(=O)Nc2oc(-c3ccccc3)c(-c3ccccc3)c2C#N)cc(OC)c1OC
  20%	4.7%	-3.7	-2.7	1.8%	6%	-12%
Cc1ccc(S(=O)(=O)n2nc(OC(=O)C(C)(C)C)cc2N)cc1
  -1%	0.2%	1.0	4.5	1.6%	10%	1%
NS(=O)(=O)c1ccc(NC(=O)COC(=O)CCc2ccccc2)cc1
  2%[15.4 µM]	x	-1.2	-0.5	2.0%	17%	1%
CCOCCCNC(=O)C(NC(=O)c1ccc(NC(C)=O)cc1)c1ccc(OC)cc1 (stereo unspecified)
  -20%	-3.2%	0.2	1.5	-0.6%	13%	-6%
CCC(C)(C)n1nnnc1C(c1cc2ccc(OC)cc2[nH]c1=O)N1CCc2ccccc2C1 (stereo unspecified)
  u	-24%	-3.9	-3.3	u	4.5µM*	-17%
Cc1c[nH]c2cccc(OCC(O)CNC(C)(C)C)c12 (stereo unspecified)
  -71%[inhibitor]	-4.9%	0.1	3.7	2.9%[38.3 µM]	-14%	-15%
CCOC(=O)CCSc1nc(C)c2ccccc2n1
  16%	-12%	-1.2	9.5	1.3%	13%	-10%
CCc1ccc([C@H]2[C@@H]3C(=O)C[C@@H]4C(=O)N(C)C(=O)[C@@H]4[C@@H]3CN2S(=O)(=O)c2ccc(C)cc2)cc1
  x	-0.8%	0.7	x	0.0%	x	x
COc1cc(OC)cc(C(=O)NCC2CCCN(Cc3ccc(SC)cc3)C2)c1 (stereo unspecified)
  -13%	-1.2%	-9.8	-3.7	4.5%	5%	7%
COc1cc(C(=O)N/C(=C\c2cn(S(=O)(=O)N(C)C)c3ccccc23)C(=O)NCCCO)cc(OC)c1OC
  u	0.2%	-3.3	-1.0	2.7%	25%	3%
CCn1c(=O)c2cc(S(=O)(=O)NC3CCCCC3)ccc2n(CC)c1=O
  4%	-1.4%	-1.3	5.4	x	1%	-13%
Cc1cc(-c2nnc(CCC(=O)N(CC3CCC3)CC3CCCO3)o2)no1 (stereo unspecified)
  -1%[15.4 µM]	x	-1.6	-4.2	1.5%	1%	3%
O=C(CSc1nnnn1-c1ccc(Cl)cc1)N1CCNC1=O
  -9%	1.3%	-3.6	x	6.9%	x	-11%
Cn1c(CC(=O)Nc2ccccc2C(F)(F)F)c(Sc2ccccc2)c2ccccc21
  14%	-1.2%	0.9	0.9	u	-7%	-3%
c1ccc(CNc2nc(NCc3ccccc3)c3ccccc3n2)cc1
  -6%[15.4 µM]	x	10	3.0	-1.7%	14µM*	-1%
N#Cc1ccccc1OCC(=O)N1N=C(c2cccs2)CC1c1ccco1 (stereo unspecified)
  -1%	4.7%	-4.1	x	-0.6%	x	-20%
COc1ccc(C(=O)N/C(=C\c2cn(S(=O)(=O)N(C)C)c3ccccc23)C(=O)N2CCOCC2)cc1
  -5%	-2.5%	-1.1	-3.2	-0.4%	8%	4%
C=CCN(CC=C)C(=S)Nc1cc(Cl)ccc1OC
  -62%[inhibitor]	-3.5%	42*	1.1	-0.4%	5%	6%
COc1ccc(N2CCN(C(=O)CSc3nnc(C4CC4)n3C3CC3)CC2)cc1
  u	-2.0%	0.6	x	-0.9%	x	x
CCOC(=O)c1cc2oc(C(c3nnnn3C3CCCCC3)N3CCOCC3)cc2[nH]1 (stereo unspecified)
  -21%	-6.4%	-2.6	2.2	2.9%	-4%	20%
Nc1ccc2ccc(O)cc2c1
  u	x	3.0	x	4.5%	x	6%
c1ccc(OCCCc2nc(-c3cccnc3)no2)cc1
  -2%	0.8%	-1.3	-1.4	6.5%[38.3 µM]	11%	9%
OC[C@H]1OC(O)[C@H](O)[C@@H]1O (stereo partly specified)
  x	0.0%	-2.8	x	0.7%	x	3%
Cc1ccccc1NC(=O)Cc1nc(COC(=O)c2cc([N+](=O)[O-])ccc2NCCO)cs1
  -39%[15.4 µM]	x	-2.6	x	-1.4%	x	-11%
CN(C)CCn1c(NC(=O)c2ccc(Cl)cc2)nc2ccccc21
  u	u	-4.9	1.5	x	0%	6%

Assay outcomes: PubChem, National Center for Advancing Translational Sciences (NCATS)
